AmpC inh no det = blocks E. coli AmpC beta-lactamase in absence of detergent. 1.8% of 71,000 active. AmpC nitrocefin hydrolysis, absorbance 480 nm, no detergent; potencies from a single point are estimates. P00811. Potency, µM (highest dose often 28.7 µM), inactives show top-dose activity change, negative = inhibition. AID 585; active = falling curve, for most hits resting on a single point; inconclusive = weak or doubtful change; inactive = flat or rising curve; note: % of control where 0% means no effect; about half of the hits show no inhibition at the top dose; a quarter of the inactives give rising signals
Target sequence (P00811 whole entry, looked up): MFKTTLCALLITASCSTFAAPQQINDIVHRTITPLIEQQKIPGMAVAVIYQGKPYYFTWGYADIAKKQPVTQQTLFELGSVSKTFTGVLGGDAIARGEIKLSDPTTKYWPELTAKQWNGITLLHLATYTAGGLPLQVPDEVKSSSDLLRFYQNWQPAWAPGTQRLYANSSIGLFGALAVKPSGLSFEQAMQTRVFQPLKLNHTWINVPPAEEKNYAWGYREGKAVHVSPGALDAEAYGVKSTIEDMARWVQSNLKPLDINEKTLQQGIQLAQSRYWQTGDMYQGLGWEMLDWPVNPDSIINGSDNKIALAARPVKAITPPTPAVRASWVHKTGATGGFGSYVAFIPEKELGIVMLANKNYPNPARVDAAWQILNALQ
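Enzyme, pH 7.0 phosphate. Compound titrations were pre-incubated with AmpC for 15 min at room temperature before nitrocefin (stock 800 uM) addition; product formation was recorded at 480 nm every 20 s for 4 min.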
Starred values were filed as active, the others as inactive; ? = inconclusive; [ ] = dose if it differs, or a comment. Potency is the fitted concentration of half-maximal effect.

SMILES	AmpC inh no det
COc1ccc(OC)c(C(c2nnnn2CCc2ccccc2)N2CCC(C(N)=O)CC2)c1 (stereo unspecified)	88%
COc1cc(CN2CCC(C(=O)NC3CCCC3)CC2)ccc1O	-10%
CNC[C@H](O)c1ccc(OC(=O)C(C)(C)C)c(OC(=O)C(C)(C)C)c1	29%[12.8 µM]
COc1ccc(OC)c(NC2c3ccccc3C(=O)N2c2cccnc2)c1 (stereo unspecified)	?
COc1ccccc1CNC(=O)C1CCN(S(=O)(=O)N2CC(C)CC(C)C2)CC1 (stereo unspecified)	58%
OC1CNCc2cc3c(cc21)OCCO3 (stereo unspecified)	-8%
CCCn1c(-c2ccc(F)cc2)nc2c(NCCN(C(C)C)C(C)C)nc(C)nc21	33%
Cc1ccc(S(=O)(=O)N(C)CCCC(=O)N2CCOCC2)cc1	12%
CCOC(=O)Cc1[nH]nc2c1C(c1cccc(OC)c1OC)C(C#N)=C(N)O2 (stereo unspecified)	-2%
COc1ccc(CCNC(=O)c2cc(-c3ccccc3O)n[nH]2)cc1OC	-8%
CN(C)c1ccc(-c2noc(C3CCN(S(=O)(=O)c4ccc(C(=O)O)cc4)CC3)n2)cc1	16%
COC(=O)c1cc(=O)n2c(-c3ccccc3)csc2n1	-12%
CN(C(=O)C1CCN(S(=O)(=O)c2cccs2)CC1)C1CCCCC1	45%
CN1CCN(C(=O)c2cc3sccc3n2CC(=O)c2ccccc2)CC1	51%
Cc1cccc(CNc2ncnc3ccc(-c4c(C)noc4C)cc23)c1	24%
CC(C(=O)O)n1nc2ccccc2n1 (stereo unspecified)	-15%
O=C(O)c1cc(-c2ccccc2)nc2ccccc12	-9%
Fc1ccc(C(c2nnnn2Cc2cccs2)N2CCN(C3CCCC3)CC2)cc1 (stereo unspecified)	16%
CCN(C(C)=O)c1nnc(CSc2nc3ccccc3s2)s1	113%
Cc1cc(C(=O)N2CCN(C(c3ccccc3)c3ccccc3)CC2)no1	101%

Compounds shown so far containing sulfur:
SMILES	AmpC inh no det
COc1ccccc1CNC(=O)C1CCN(S(=O)(=O)N2CC(C)CC(C)C2)CC1 (stereo unspecified)	58%
Cc1ccc(S(=O)(=O)N(C)CCCC(=O)N2CCOCC2)cc1	12%
CN(C)c1ccc(-c2noc(C3CCN(S(=O)(=O)c4ccc(C(=O)O)cc4)CC3)n2)cc1	16%
COC(=O)c1cc(=O)n2c(-c3ccccc3)csc2n1	-12%
CN(C(=O)C1CCN(S(=O)(=O)c2cccs2)CC1)C1CCCCC1	45%
CN1CCN(C(=O)c2cc3sccc3n2CC(=O)c2ccccc2)CC1	51%
Fc1ccc(C(c2nnnn2Cc2cccs2)N2CCN(C3CCCC3)CC2)cc1 (stereo unspecified)	16%
CCN(C(C)=O)c1nnc(CSc2nc3ccccc3s2)s1	113%

Quoted at random: 2 entries already listed, in no set order.
SMILES	AmpC inh no det
Fc1ccc(C(c2nnnn2Cc2cccs2)N2CCN(C3CCCC3)CC2)cc1 (stereo unspecified)	16%
CN1CCN(C(=O)c2cc3sccc3n2CC(=O)c2ccccc2)CC1	51%

Additional compounds:
SMILES	AmpC inh no det
CC(=O)N(Cc1cc(=O)[nH]c2ccccc12)c1cccc(C)c1	0%
FC(F)(F)c1cccc(Cl)c1	-11%
CCC(C)NC(=O)CS(=O)Cc1nc(-c2cccc(OC)c2)oc1C (stereo unspecified)	4µM*[single pt active]
CC(=O)c1c(C)[nH]c(C(=O)NCc2ccccc2Cl)c1C	-9%
CCCc1nnc(NC(=O)CCC(=O)N2CCCCCC2)s1	17%
FC(F)(F)c1ccc(N2CCOCC2)c(NC2=NCCCCC2)c1	-5%
O=C(Cn1cc2c(n1)CCCCC2)NC1CCCCCC1	6%
CN=C(Nc1cc(C)nn1-c1ccccc1)c1ccc(F)cc1	3%
CC(C)CNc1nc(N)[nH]c(=O)c1NC=O	4%[5.75 µM]
COc1ccc(N2CCN(C(c3nnnn3CCc3ccccc3)C(C)C)CC2)cc1 (stereo unspecified)	53%
Cc1cccn2c(=O)c3cc(C(=O)NCC4CCCO4)n(C)c3nc12 (stereo unspecified)	-4%
CC(=O)c1ccc(OC(C)C)c(CN2CCCCC2)c1	-10%
CN1CCN(C(=O)C(Cc2ccccc2)NS(=O)(=O)c2ccc3c(c2)CCC(=O)N3)CC1 (stereo unspecified)	4µM*[single pt active]
COc1ccc(-c2cc(C(=O)N3CCN(C(c4ccccc4)c4ccccc4)CC3)no2)cc1OC	70%
C[C@@](Cc1ccccc1)(NC(=O)CN)c1ccccc1	13%
CC(=O)Nc1cccc(NC(=O)c2c(-c3c(Cl)cccc3Cl)noc2C)c1	26%
COc1cc(C)nc(N2CCC(C(N)=O)CC2)n1	3%
CCCn1c(-c2ccc(F)cc2)nc2c(NCCN(CC)CC)nc(C)nc21	18%
CN(C)c1ccc(C(=O)OCC(=O)Nc2ccc(S(N)(=O)=O)cc2)cc1	16µM*[single pt active]
CCC(CC)C(=O)Nc1nnc(-c2cccs2)s1	-7%
Cc1cccc(NC(=O)c2oc3ccc(S(=O)(=O)N4CCOCC4)cc3c2C)c1C	81%
Cc1nonc1NC(=O)N1CCCC1	-10%
COc1ccc(OC)c(C(c2nnnn2CCC(C)C)N2CCN(C(=O)c3ccco3)CC2)c1 (stereo unspecified)	105%
O=C(CSc1nnc(C23CC4CC(CC(C4)C2)C3)o1)Nc1ccc(N2CCOCC2)c(Cl)c1	52%
COc1cccc(OC(=O)CSc2nnc(-c3ccccc3Br)o2)c1	-8%
O=C(OC1CCOC1=O)c1ccc2ccccc2n1 (stereo unspecified)	8%
O=S(=O)(c1ccc(Cl)cc1)N1CCN(C2CCCCCC2)CC1	-1%
CCS(=O)(=O)N1CCC(NC(C)=O)(c2ccccc2)CC1	-4%
CC(C)COC(=O)n1ccc(C(=O)N2CCCCC2)n1	5%
CCOC(=O)CC1=CC(=O)Nc2ccccc2N1	-9%
N#Cc1nc(-c2ccco2)oc1N1CCOCC1	-17%
CC(=O)c1ccc2c3c(ccc(O)c13)CC2	4%
O=C(O)COc1ccc2c(-c3ccccc3)cc(=O)oc2c1	-9%
Cc1cc(N2C(=O)C3C4c5ccccc5C(c5ccccc54)C3C2=O)no1 (stereo unspecified)	25%
COc1ccccc1-c1cncnc1-n1ccnc1	-1%
COc1ccc2oc(C(=O)C3CC3)c(N)c2c1	23%
COC(=O)Cc1c(C)c2ccc(OCC(=O)NCc3ccc4c(c3)OCO4)cc2oc1=O	24%
COCCNC(=O)C(c1ccc(C)o1)N(C(=O)c1snc(C(N)=O)c1N)c1cc(C)cc(C)c1 (stereo unspecified)	100%
CCOC(=O)CC(=O)CSc1nc2ccccc2c(=O)n1-c1ccc(C(=O)N2CCOCC2)cc1	55%
COCC(C)NCc1ccc(C)cc1C (stereo unspecified)	-10%
COC(=O)C1C(=O)c2c([nH]c(C(=O)OCC3CCCO3)c2C)CC1C (stereo unspecified)	15%
C[C@@]12CC[C@H]3[C@@H](CC[C@H]4C[C@@H](O)CC[C@]43C)[C@H]1CC[C@@H]2C(=O)C[C@H](O)C(F)(F)F	21%[5.75 µM]
O=S(=O)(NCC1CCCO1)c1cccc(S(=O)(=O)N2CCCC2)c1 (stereo unspecified)	16%
Cc1cc(C)n(-c2ccc(C(=O)OCC(=O)c3c(N)n(C)c(=O)n(C)c3=O)cc2)n1	116%
COc1cccc(CNC(=O)C2CCN(S(=O)(=O)c3ccccc3)CC2)c1	19%
C=CCn1sc(N)c(C(=O)OCC)c1=S	2%
CC(C)(C)C1=Nn2c(nnc2-c2ccccc2F)SC1	11%
O=C(N[C@@H](Cc1ccccc1)C(=O)CCl)OCc1ccccc1	-2%
COc1ccc2nc(N3CCCCC3)c(C#N)cc2c1	17%
Cc1csc(SCC(=O)Nc2ccc(S(=O)(=O)N3CCCC3)cc2)n1	-9%
CCN(CC)c1ccc(C2CC(=O)Nc3cc(OC)c(OC)cc32)cc1 (stereo unspecified)	62%
Cc1c(/C(O)=C2\C(=O)C(=O)N(CCCN(C)C)C2c2ccncc2)cnn1-c1ccccc1 (stereo unspecified)	-9%
O=C(COC(=O)CCC1CCCC1)Nc1ccc(Cl)cn1	-20%
CCc1c(C)nc2ncnn2c1NCCc1ccc(OC)c(OC)c1	2%
CCN1CCCC1CNC(=O)COc1cc(=O)n(C)c2ccccc12 (stereo unspecified)	-6%
COc1cc(C2N(c3ccc(F)cc3)C(=O)C3CCCN32)cc(OC)c1OC (stereo unspecified)	43%
COc1ccccc1NC(=O)Oc1ccc(NC(=O)c2ccco2)cc1	-4%
CCOc1ccccc1C1NC(=O)NC(C)=C1C(=O)OC1CCCC1C (stereo unspecified)	9%
COc1ccc(NC(=O)c2ccco2)cc1NC(=O)c1cc2ccccc2o1	27%
CCN(CCCNC(=O)Cn1cc2c(n1)CCCC2)c1cccc(C)c1	73%
Going on with the list:
SMILES	AmpC inh no det
Cc1cc(C)nc(Nc2nc(C)c3cc4c(cc3n2)OCO4)n1	2%
c1ccc(-n2nc3c(ccc4cnnc43)[nH]2)cc1	-2%
O=C(O)C1=C(C(=O)N2CCN(C(=O)c3ccco3)CC2)CCCC1	-1%
Cc1sc(NC(=O)CSc2nnc(COc3ccc(Cl)cc3)n2C)c(C#N)c1C	-17%
O=C(Nc1ccc(O)c(C(=O)O)c1)c1ccc2c(c1)C(=O)N(CC1CCCO1)C2=O (stereo unspecified)	6%
CCOC(=O)c1nnn(-c2nonc2N)c1CN1CCCCCC1	18%
Cc1ccc(-n2ncc3c(=O)n(CC#N)cnc32)cc1C	10%
COC(=O)c1ccccc1NC(=O)Cn1c(=O)oc2ccc(Cl)cc21	9%
O=C1NCC2=C1C(c1ccccc1)Nc1ccccc1N2 (stereo unspecified)	-12%
COCCn1nnnc1C(c1ccc(OC)cc1)N1CCC(C)CC1 (stereo unspecified)	34%
CCOC(=O)c1cnc2nc(C)[nH]n2c1=O	-4%
COc1ccc(N(CC(=O)N2CCN(Cc3ccc4c(c3)OCO4)CC2)S(C)(=O)=O)cc1OC	79%
CCn1nnnc1SCC(=O)NCc1cccs1	-12%
CCOC(=O)c1ccc(NC(=O)N2CCc3ccccc32)cc1	17%
CCC(=O)Nc1cccc(NC(=O)CN2CCN(c3ccccc3OC)CC2)c1	32%
COc1ccc(CCN2C(=O)c3[nH]nc(-c4ccccc4O)c3C2c2ccccc2)cc1OC (stereo unspecified)	9%
O=C(NCc1cccc(Cl)c1)c1cccnc1	-7%
O=S(=O)(Nc1ccc(-c2cn3ccsc3n2)cc1)c1ccc2c(c1)OCCO2	?
CCOc1[nH]c(/N=C/c2ccco2)c(C#N)c1C#N	-24%
Cc1cc(C(=O)CN2C(=O)NC(C)(c3cccc(Br)c3)C2=O)c(C)n1Cc1ccco1 (stereo unspecified)	-6%
S=C(Nc1ccccn1)c1ccccn1	4%
COc1ccc2cc(CN(C(=O)Nc3ccccc3)C3CCCC3)c(=O)[nH]c2c1	22%
NC(=O)NC(CC(=O)OCC(=O)NC(=O)NCc1ccco1)c1ccc(Cl)cc1 (stereo unspecified)	29%
Cn1c(Cn2c(=O)sc3ccccc32)nnc1SCC(=O)NC1CCCCC1	2%
CCOc1cc2[nH]c(=S)n(CC3CCCO3)c(=O)c2cc1OCC (stereo unspecified)	65%
Cn1nnc2cc(C(=O)N3CCN(c4ccccc4)CC3)ccc21	23%
CN(c1ccccc1)c1nc(N2CCCC2)nc(-n2ccnc2)n1	63%
c1ccc(CNC2=NCCC2)nc1	0%
CN1CCCC(C(=O)C(C#N)c2ccccc2)C1 (stereo unspecified)	2%
Cc1ccc2[nH]c(=O)c(CN(CCO)Cc3nnnn3CCc3ccccc3)cc2c1	87%
C=CCn1c(=O)[nH]c2cc(C(=O)N3CCN(c4cccc(Cl)c4)CC3)ccc2c1=O	45%
CNCCc1c(C)n[nH]c1C	-14%
CNS(=O)(=O)c1cccc(C(=O)OCC(=O)c2cc(C)n(-c3ccc4c(c3)OCO4)c2C)c1	8%
O=C(NCc1cccnc1)C(C(=O)c1ccc(F)cc1)n1ccccc1=O (stereo unspecified)	0%
CC(Oc1ccc(Cl)cc1Cl)c1nc(-c2ccc(NC(=O)c3cccnc3)cc2)no1 (stereo unspecified)	69%
CN(CCO)c1ncnc2nc[nH]c12	-12%
c1ccc2scnc2c1	-12%
CC(=O)c1ccc(NC2CC(O)C(O)CO2)cc1 (stereo unspecified)	-13%
CC(=O)Nc1ccc(S(=O)(=O)N2CCN(c3ccc(C)c(Cl)c3)CC2)cc1	17%
COc1ccc(N2CC(C(=O)NC3CC(C)(C)NC(C)(C)C3)CC2=O)cc1 (stereo unspecified)	4%

Structures from the list above containing a COOH group:
SMILES	AmpC inh no det
CN(C)c1ccc(-c2noc(C3CCN(S(=O)(=O)c4ccc(C(=O)O)cc4)CC3)n2)cc1	16%
CC(C(=O)O)n1nc2ccccc2n1 (stereo unspecified)	-15%
O=C(O)c1cc(-c2ccccc2)nc2ccccc12	-9%
O=C(O)COc1ccc2c(-c3ccccc3)cc(=O)oc2c1	-9%
O=C(O)C1=C(C(=O)N2CCN(C(=O)c3ccco3)CC2)CCCC1	-1%
O=C(Nc1ccc(O)c(C(=O)O)c1)c1ccc2c(c1)C(=O)N(CC1CCCO1)C2=O (stereo unspecified)	6%

Additional results follow.
SMILES	AmpC inh no det
CC(C)CCn1c(N)c(C(=O)OCC2CCCO2)c2nc3ccccc3nc21 (stereo unspecified)	72%
CCOc1ccc(C(=O)Nc2cc(OC)ccc2OC)cc1	17%
CC(C(=O)N1c2ccccc2Sc2ccccc21)n1nnc(-c2cccs2)n1 (stereo unspecified)	3%
COCCn1c(=O)cnc2cnc(N3CCOCC3)nc21	5%
COc1ccc(C2CC(c3ccccc3)Nc3ncnn32)cc1 (stereo unspecified)	4µM*[single pt active]
CCOC(=O)C1CCN(S(=O)(=O)c2ccc(-c3nc4ccccc4s3)s2)CC1	24%
Cc1ccc(-c2nc(-c3cccnc3)no2)c(C)c1	43%
Cc1ccc(C)c(Cn2c(=O)n(CCC(=O)NCc3ccco3)c(=O)c3ccccc32)c1	2%

In the list so far, two contain bromine:
SMILES	AmpC inh no det
COc1cccc(OC(=O)CSc2nnc(-c3ccccc3Br)o2)c1	-8%
Cc1cc(C(=O)CN2C(=O)NC(C)(c3cccc(Br)c3)C2=O)c(C)n1Cc1ccco1 (stereo unspecified)	-6%

This is a subset, so the mix of outcomes need not match the whole.
